Cruzain inh Det = cruzain (T. cruzi) inhibition with detergent; purified cruzain, Z-FR-AMC fluorescence, 0.01% Triton; Potency, µM, for inactives: max response, negative = inhibition, usual class: inhibitors; hit rate 0.43% among 200,000; AID 1478;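 note: plate controls were neutral wells for no effect and buffer without enzyme for full effect; nearly all actives have a fitted effect of over 40% in size; top concentration of the series not given in the record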
Target sequence (P25779 123-467 limits assumed): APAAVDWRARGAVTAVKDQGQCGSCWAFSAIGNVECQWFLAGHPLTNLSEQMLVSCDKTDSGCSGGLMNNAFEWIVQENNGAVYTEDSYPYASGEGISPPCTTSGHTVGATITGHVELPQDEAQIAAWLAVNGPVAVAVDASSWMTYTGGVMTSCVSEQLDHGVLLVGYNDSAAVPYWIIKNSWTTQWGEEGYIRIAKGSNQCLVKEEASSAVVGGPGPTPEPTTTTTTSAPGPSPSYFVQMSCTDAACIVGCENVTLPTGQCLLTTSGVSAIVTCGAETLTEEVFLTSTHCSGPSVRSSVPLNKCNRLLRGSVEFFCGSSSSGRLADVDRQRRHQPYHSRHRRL
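Steps: dispense cruzain (1.5 nM final) in acetate buffer pH 5.5 with DTT and 0.01% Triton X-100; pin-transfer compounds; incubate 15 min RT; add Z-FR-AMC (2 uM final); read fluorescence every 30 s, using the 60 s intensity change.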
Cruzain noTriton = blocks cruzain activity in detergent-free assay | AID 1476 | Potency, µM, for inactives: max response, negative = inhibition, usual class: inhibitors | P25779 | purified cruzain, Z-FR-AMC fluorescence, no detergent | hit rate 2.3% among 200,000;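 note: plate controls were enzyme without inhibitor for no effect and buffer without enzyme for full effect; nearly all actives have a fitted effect of over 40% in size; top concentration of the series not given in the record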
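Detergent-free condition (0.00005% Triton X-100) in acetate buffer pH 5.5 with DTT. 1.5 nM enzyme and compound were pre-mixed 15 min, then 2 uM Z-FR-AMC substrate added; reaction progress from fluorescence change between first and third reads (60 s).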
NS1 inh = inhibitors of influenza NS1 protein function; S. cerevisiae slowed by influenza A NS1, growth recovery by OD600; Potency, µM (titrated, usually from 46.1 µM), inactives show top-dose activity, positive = more growth; hit rate 0.4% among 270,000; AID 2326; active means well fitted rising curve with a large enough effect; inconclusive means small, poorly fitted or top-dose-only effect; inactive means no such curve, though single readings can be large or run the other way; note: nearly all actives have a fitted effect of over 50% in size
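Compounds were scored for reversing the slow growth caused by influenza A NS1 in S. cerevisiae, measured by optical density at 600 nm. Assay medium contained 2% galactose at pH 6.0; NS1-free yeast of the same strain were the positive control.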
* hit, by the source's call; ? = inconclusive; . = not tested or not shown. Unless noted, calls come from the whole dose curve; as a rule, active = well fitted curve in the direction sought with a large enough effect; inconclusive = small, poorly fitted or top-dose-only effect, or another doubt; inactive = no such curve, though single readings can be large; an effect the other way counts as inactive or inconclusive. Potency is the fitted concentration of half-maximal effect. An excerpt (hit frequency here may not be typical).

SMILES	Cruzain inh Det	Cruzain noTriton	NS1 inh
COC(=O)[C@@]1(Cc2ccc(OC)cc2)[C@H]2c3cc(C(=O)N4CCCC4)n(Cc4ccc(O)c(OC)c4)c3C[C@H]2CN1C(=O)c1ccccc1	4.3%	?	.
COc1ccc2c(c1-c1c3c(cc(Br)c1OC)CCCC3)CCCC2	2.2%	9%	.
NCCC[C@@H](CC(=O)N[C@@H]1CCCC[C@H]1C(=O)N[C@H](CC(=O)N[C@@H](CCC(=O)O)CC(=O)O)Cc1c[nH]c2ccccc12)NC(=O)C[C@H](CO)NC(=O)[C@@H]1CNCC[C@H]1N	-5.0%	9%	.
OB(O)c1ccc(Br)cc1	0.1%	-1%	.
C(=NC1CCCCC1)=NC1CCCCC1	3.0%	-4%	.
CCN1C[C@@]2(COC)CC[C@H](OC)[C@]34[C@@H]1[C@]1(OCO[C@@]15C[C@@H](OC)C1C[C@H]3[C@H]5[C@@H]1OC)[C@H](O)[C@@H]24	-3.4%	-5%	.
COc1ccc2c(c1)O[C@H](c1ccc3c(c1)OCO3)[C@@H](OC(=O)NC1CCCC1)C2=O	-0.1%	-6%	.
COc1ccc(-c2cc(=O)c3ccc(F)cc3[nH]2)cc1	-0.2%	0%	.
CC/C=C\C[C@H]1C(=O)CC[C@@H]1CC(=O)O	2.2%	2%	.
C=C(N(C)C)[C@]1(C)C[C@H]1[C@H](NC(=O)CNC(=O)OCc1ccccc1)c1ccccc1	-11%	1%	.

6 entries from above, set out differently:
Under each structure – Cruzain inh Det, Cruzain noTriton, NS1 inh
C(=NC1CCCCC1)=NC1CCCCC1
→ 3.0%, -4%, .
OB(O)c1ccc(Br)cc1
→ 0.1%, -1%, .
COC(=O)[C@@]1(Cc2ccc(OC)cc2)[C@H]2c3cc(C(=O)N4CCCC4)n(Cc4ccc(O)c(OC)c4)c3C[C@H]2CN1C(=O)c1ccccc1
→ 4.3%, ?, .
NCCC[C@@H](CC(=O)N[C@@H]1CCCC[C@H]1C(=O)N[C@H](CC(=O)N[C@@H](CCC(=O)O)CC(=O)O)Cc1c[nH]c2ccccc12)NC(=O)C[C@H](CO)NC(=O)[C@@H]1CNCC[C@H]1N
→ -5.0%, 9%, .
COc1ccc2c(c1)O[C@H](c1ccc3c(c1)OCO3)[C@@H](OC(=O)NC1CCCC1)C2=O
→ -0.1%, -6%, .
CCN1C[C@@]2(COC)CC[C@H](OC)[C@]34[C@@H]1[C@]1(OCO[C@@]15C[C@@H](OC)C1C[C@H]3[C@H]5[C@@H]1OC)[C@H](O)[C@@H]24
→ -3.4%, -5%, .

Additional structures:
SMILES	Cruzain inh Det	Cruzain noTriton	NS1 inh
COc1ccc2c(c1)O[C@H](c1ccc3c(c1)OCO3)[C@@H](OC(=O)NCCc1ccc(OC)c(OC)c1)C2=O	2.3%	?	.
c1nc[nH]n1	5.1%	-2%	.
O=c1cc(-c2cccc(F)c2)[nH]c2cc(F)ccc12	0.7%	-1%	.
CNc1cc(OC)c(C(=O)N[C@@H]2CCN(Cc3ccccc3)[C@H]2C)cc1Cl	-4.8%	-3%	.
CC[N+](CC)(CC)CC[C@](O)(c1ccccc1)C1CCCCC1	-2.5%	-12%	.
COC(=O)C1(C(=O)OC)C/C=C\C/C=C\c2ccccc2C1C[N+](=O)[O-] (configuration not stated)	3.5%	-7%	.
CCCCCCCC[C@@H](O)/C=C/C=C/C=C\[C@@H](O)CCCC(=O)O	3.4%	-7%	.
CC[C@@H]1[C@@H]2C[C@H]3[C@H]4N(C)c5ccccc5[C@@]45C[C@@H]([C@@H]2[C@@H]5O)N3[C@H]1O	8.8%	-5%	.
COC(=O)c1ccc(C(NC(=O)OCc2ccccc2)/C(=C/[C@@H](C)C(=O)NCc2cc(C)on2)c2cccnc2)cc1 (some centres not stated)	-0.9%	?	.
COC(=O)[C@@]1(Cc2ccccc2)[C@H]2c3cc(C(=O)N(C)C)n(Cc4nc5ccccc5[nH]4)c3C[C@H]2CN1C(=O)c1ccccc1	0.5%	?	.
CCCCC/C=C\C/C=C\C/C=C\CCCCCCC(N)=O	-2.2%	-8%	.
COc1ccc2c(c1OC)C(Cc1ccccc1)N1CCc3cc4c(cc3C1C2)OCO4 (configuration not stated)	-3.5%	17%	.
CCCn1c(C)nc2c(NCCO)nc(C)nc21	-3.0%	-1%	.
O=c1cc(-c2ccc(F)cc2F)[nH]c2ccc(F)cc12	-3.1%	-1%	.
CCNC(C)Cc1cccc(C(F)(F)F)c1 (configuration not stated)	-6.0%	-1%	.
COc1cccc([C@@H]2Oc3ccc(Br)cc3C[C@H]2O)c1	1.1%	-9%	.
C[C@H]1[C@@H](O)[C@@H](C)/C=C\C=CCC\C=C/C=C\C=C/C=C[C@@H](O[C@H]2O[C@@H](C)[C@@H](O)[C@@H](N)[C@@H]2O)C[C@@H]2O[C@@](O)(C[C@@H](O)[C@H]2C(=O)O)C[C@@H](O)[C@@H](O)CC[C@@H](O)C[C@@H](O)C[C@@H](O)CC(=O)O[C@H]1C	-3.4%	?	.
Cc1nc(NCc2ccccc2)c2nc(-c3ccccc3)n(CCCN3CCCCC3C)c2n1 (configuration not stated)	-3.9%	1%	.
CCCC[C@@H]1C[C@H]1C(NC(=O)c1cccnc1)c1ccc(Cl)cc1 (some centres not stated)	3.6%	-5%	.
COC(=O)[C@@H]1C[C@@]2(O)[C@@H](O)[C@@H](O)[C@@H](O)C[C@H]2N1Cc1ccc(C(C)(C)C)cc1	2.5%	-6%	.
O=[N+]([O-])C(Br)Br	-2.2%	1%	.
COC(=O)[C@@]1(Cc2ccc(OC)cc2)[C@H]2c3cc(C(=O)N(C)C)n(Cc4ccc(C(F)(F)F)nc4)c3C[C@H]2CN1C(=O)c1ccccc1	-4.9%	?	.
Clc1cc(Cl)cc(C2=N[C@@H](Cc3ccccc3)CO2)c1	-3.9%	1%	.
O=Cc1ccccc1Cl	5.4%	4%	.
ON=C1CCCCC1	1.5%	-2%	.
OC[C@@H]1O[C@@H](N2CCN([C@@H]3O[C@@H](CO)[C@@H](O)[C@H](O)[C@H]3O)CC2)[C@@H](O)[C@H](O)[C@H]1O	-0.7%	1%	-5%
COC(=O)[C@@H]1C(O)[C@@H](C(=O)OC)[C@H](C)N(C)[C@@H]1C (some centres not stated)	2.5%	4%	3%
Cc1ccc(S(=O)ON2CCC(C(=O)O)(c3ccccc3)CC2)cc1 (configuration not stated)	2.2%	-1%	-5%
O=C(O)CCn1cnc2c(=S)nc[nH]c21	1.8%	0%	0%
CC[C@H](C(=O)c1cccs1)C(O)(C(F)(F)F)C(F)(F)F	0.4%	1%	5%
C=C[C@]1(C)C[C@H](OC(=O)CO)[C@]2(C)C3C(=O)CC[C@]3(CC[C@H]2C)[C@H](C)[C@H]1O (some centres not stated)	2.4%	-7%	-8%
CSc1nc(C)cc(Nc2ccc(O)c(CN3CCCCC3)c2)n1	0.2%	4%	-10%
CN(C)CCOC(=O)c1ccc(N)cc1	0.2%	2%	-5%
Nc1nc(N)c2[nH]cnc2n1 (tested in a mixture with another compound)	3.1%	9%	-3%
C[C@H]1O[C@@H](CC(=O)O)Cc2c1c(O)c1c(O)cc(-c3cc(=O)c4c(=O)c5c(c(=O)c=4c3=O)C[C@H](CC(=O)O)O[C@@H]5C)c(O)c1c2O	-4.3%	22%	13%
C[C@]1(O)CC[C@H]2[C@@H]3[C@@H](O)CC4=CC(=O)CC[C@@]4(C)[C@H]3CC[C@]21C	1.5%	6%	-1%
CC(C)(Oc1ccc(-c2cccc3ccccc23)cc1)C(=O)O	-3.6%	0%	-12%
Cn1c(=O)c2[nH]c(COCc3nc4c([nH]3)c(=O)n(C)c(=O)n4C)nc2n(C)c1=O	2.7%	-1%	0%
O=CN[C@@H](Cc1cnc[nH]1)C(=O)O	1.4%	8%	6%
C[C@@H]1CC[C@H]2[C@H](C)C3[C@H](C[C@H]4[C@@H]5CC=C6C[C@@H](O)CC[C@@]6(C)[C@@H]5C[C@@H](O)[C@]34C)N2C1 (some centres not stated)	-2.7%	-6%	-6%

Reprinted from the part before: 4 entries, followed by the next part.
SMILES	Cruzain inh Det	Cruzain noTriton	NS1 inh
CC(C)(Oc1ccc(-c2cccc3ccccc23)cc1)C(=O)O	-3.6%	0%	-12%
Cn1c(=O)c2[nH]c(COCc3nc4c([nH]3)c(=O)n(C)c(=O)n4C)nc2n(C)c1=O	2.7%	-1%	0%
O=CN[C@@H](Cc1cnc[nH]1)C(=O)O	1.4%	8%	6%
C[C@@H]1CC[C@H]2[C@H](C)C3[C@H](C[C@H]4[C@@H]5CC=C6C[C@@H](O)CC[C@@]6(C)[C@@H]5C[C@@H](O)[C@]34C)N2C1 (some centres not stated)	-2.7%	-6%	-6%
N[C@@H](CP(=O)(O)O)C(=O)O	-3.4%	6%	0%
CC1(C)[C@@H]2CC[C@@](C)(C2)[C@H]1OC(=O)c1ccccc1C(=O)O	1.8%	8%	0%
Cc1cc(C)c2c(SCc3ccc(Cl)cc3Cl)nc(N)nc2n1	4.5%	-8%	-3%
Oc1c(Cl)cc(CN(Cc2cc(Cl)c(O)c(Cl)c2)C2CCCCC2)cc1Cl	2.0%	1%	-16%
CC(=O)N[C@H](Cc1ccc(O)cc1)C(=O)O	9.3%	-1%	4%
CC(C)(C)c1cc(C#N)cc(Br)c1OP(=O)(Oc1c(Br)cc(C#N)cc1C(C)(C)C)c1ccccc1	5.1%	-2%	-6%
Cc1ccc(C)c(C(=N)c2ccccc2Cc2ccccc2)c1	2.7%	-5%	-32%
COc1ccc2nc(NCN3C(=O)c4ccccc4C3=O)sc2c1	1.7%	-4%	-4%
O=C1c2ccccc2C(=O)c2c(NC3CCCCC3)ccc(Nc3ccc(S(=O)(=O)O)cc3)c21	-18%	29%	-8%
Oc1ccc(Cn2c(-c3ccc(O)cc3)nc3ccccc32)cc1	7.8%	11%	-2%
c1cc(NNc2cccc(-c3nn[nH]n3)c2)cc(-c2nn[nH]n2)c1	-0.6%	6%	-1%
O=S(=O)(O)n1ccnc1 (tested in a mixture with another compound)	1.1%	2%	-1%
OC[C@@H]1CCC[C@H](n2cnc3c(=S)nc[nH]c32)O1	4.8%	-1%	5%
O=C1C=CC(=Nc2cccc3c(N=C4C=CC(=O)O4)cccc23)O1	-3.2%	-8%	1%
CC(C)(C)C(=O)CP(=O)(O)O	-1.0%	-1%	-1%
CN1CCN(CC(=O)N2c3ccccc3Sc3cc4ccccc4cc32)CC1	3.3%	2%	-4%
NC(N)=NC[C@@H]1CCCCCCN1	1.8%	15%	6%
Nc1nc(N)c(N=Nc2ccc([As](=O)(O)O)cc2)c(=O)[nH]1	-0.9%	0%	-8%
C[As+](C)(c1ccc(Br)c([N+](=O)[O-])c1)c1ccc(Br)c([N+](=O)[O-])c1.O=[N+]([O-])O	2.0%	6%	-3%
CS[C@@H](CC(=O)O)C(=O)O	4.0%	4%	-2%

The list goes on, overlapping the part above by 4 compounds.
SMILES	Cruzain inh Det	Cruzain noTriton	NS1 inh
NC(N)=NC[C@@H]1CCCCCCN1	1.8%	15%	6%
Nc1nc(N)c(N=Nc2ccc([As](=O)(O)O)cc2)c(=O)[nH]1	-0.9%	0%	-8%
C[As+](C)(c1ccc(Br)c([N+](=O)[O-])c1)c1ccc(Br)c([N+](=O)[O-])c1.O=[N+]([O-])O	2.0%	6%	-3%
CS[C@@H](CC(=O)O)C(=O)O	4.0%	4%	-2%
Cc1ccc(S(=O)(=O)N[C@H](C(=O)O)C(C)C)cc1	3.5%	7%	-3%
Nc1nnnn1CCO	4.1%	1%	3%
CN(Cc1cc(Br)cc(Br)c1O)Cc1c(O)ccc2ccccc12	-3.3%	-3%	-15%
NNC(=O)c1ccc[n+](CCc2ccccc2)c1	2.7%	-5%	1%
CC(C)CO[C@H](c1ccc2c(c1)OCO2)[C@H](C)Br	3.2%	-5%	0%
CC1=C2C(=O)[C@@H]3[C@@H](CC=C4C[C@@H](O)CC[C@@]43C)[C@H]2CC[C@@]12O[C@H]1C[C@H](C)CN[C@H]1[C@@H]2C	-4.7%	-4%	-13%
C[N+](C)(C)c1ncnc2c1ncn2[C@@H]1C[C@H](O)[C@@H](CO)O1	6.3%	11%	0%
NC(N)=N[C@@H]1C(O)[C@H](N=C(N)N)[C@@H](O)C(O)[C@H]1O (some centres not stated)	0.8%	12%	-3%
O=C(O)[C@@H](Br)[C@H](Br)C(=O)O	0.9%	10%	-8%

Screening data deposited in PubChem by National Center for Advancing Translational Sciences (NCATS).
